Source: PubChem BioAssay
GIV-Gai inh: blocks GIV peptide binding to rat Galpha-i3 | P08753 | Galpha-i3/FITC-GIV peptide fluorescence polarization, 90 min; stronger effect = lower value; scaled: aluminum fluoride 0%, vehicle 100% | percent of control (FP), % (test concentration not listed) | 0.42% of 210,000 active;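 active means replicate mean at 85% of control or lower, very high polarization wells dropped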;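 further: wells of about 15 µL received 100 nL stock; the first replicate is given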
Target sequence (P08753 whole entry, looked up): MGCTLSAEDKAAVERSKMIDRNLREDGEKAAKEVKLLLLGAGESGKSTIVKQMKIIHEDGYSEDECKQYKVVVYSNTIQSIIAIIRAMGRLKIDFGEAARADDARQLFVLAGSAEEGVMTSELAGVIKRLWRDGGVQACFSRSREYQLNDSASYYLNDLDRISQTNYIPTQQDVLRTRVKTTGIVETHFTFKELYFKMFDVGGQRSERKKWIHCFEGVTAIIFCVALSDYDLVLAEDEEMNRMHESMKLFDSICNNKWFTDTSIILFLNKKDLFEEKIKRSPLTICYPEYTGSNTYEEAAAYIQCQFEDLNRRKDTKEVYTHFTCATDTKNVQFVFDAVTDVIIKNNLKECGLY
HCMV NEC inh: cytomegalovirus nuclear egress complex inhibition; 0.15% of 190,000 active; HTRF UL50-UL53 interaction, normalized percent inhibition; inhibition, % (no concentration beside the values);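 active means both replicates at 50% or more, plus weaker picks with an unusually low signal ratio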;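 further: stock transfer was 100 nL into about 20 µL; 0% = negative control wells and 100% = wells with untagged competitor protein; inactives centre near -12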
Sa growth 42C: S. aureus growth inhibition; S. aureus RN4220 growth, OD600, 20 h, 42 °C; stronger effect = lower value; relative growth, % (no concentration beside the values); 0.53% of 170,000 active; AID 720641;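 active means growth at 42 °C up to 50% and 20 or more points under that at 30 °C, or under 10% at both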;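 further: 300 nL library stock went into each well; scaled to the means of positive and negative controls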
Sa growth 42C second temp: further read-out of Sa growth 42C, marked with its call; relative growth, %; measured here: growth at 30 °C;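 optical density after 20 h as mean of two plates; 100% = untreated growth and lower means inhibition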
An asterisk follows results filed as active; . = no result given; & = joins results of further samples.

SMILES	GIV-Gai inh	HCMV NEC inh	Sa growth 42C	Sa growth 42C second temp
Cc1ccc(S(=O)(=O)N2CC=C(C(=O)NC3CCCC3)CC2)cc1	109	.	82	84
COc1ccc(-c2cn3c(n2)sc2cc(C(=O)Nc4cccc(OC)c4)ccc23)cc1	106	.	104	95
O=C(COc1ccccc1-c1nc(-c2ccccc2)no1)Nc1cccc([N+](=O)[O-])c1	99	-22	106	86
Cc1cc(C)c(NC(=O)c2cc(-c3ccncc3)n[nH]2)c(C)c1	106	7	.	.
O=C(O)c1ccc(Nc2c(-c3cccc(Br)c3)nc3cnccn23)cc1	100	-36	.	.
CCOC(=O)/C=C1\SCC(=O)N1Cc1ccc(C)cc1	.	-24	89	94
Cc1ccc(N2CC(NC(=O)c3ccc(Br)o3)CC2=O)cc1C (stereo unspecified)	94	.	107	88
CCOC(=O)c1cccc(NC(=O)CCn2c(=O)oc3ccccc32)c1	106	-13	112	84
COc1ccc(S(=O)(=O)NCc2cccnc2)cc1-c1nnc2c3ccccc3c(C)nn12	115	2	97	89
CC(O)CNC(=O)COc1ccccc1 (stereo unspecified)	103	-6	104	86
Cc1cc(F)ccc1S(=O)(=O)N1CCCCC1CCNC(=O)NC1CCCCC1 (stereo unspecified)	101	-30	96	85
COc1cc(C)c2c(c1)CCC1C2CCC2(C)C(O)CCC12 (stereo unspecified)	101	-17	105	91
CC(C)(CO)NC(=O)COc1ccc(Cl)cc1Cl	99	-11	95	84
CC(C)N1CCN(Cc2ccc3ccccc3c2)CC1	98	-16	108	80
CN(Cc1cccs1)Cc1nc2scc(-c3ccccc3)c2c(=O)n1CC#N	.	-6	92	94
Nc1ccc(C(=O)c2ccccc2C(=O)O)cc1Cl	95	-10	97	103
COc1cc2c(cc1NC(=O)COc1cc(C)cc(C)c1)oc1ccccc12	101	-26	106	93
CCn1c(CN(c2ccc(F)cc2)S(C)(=O)=O)nnc1SCC(=O)c1ccccc1	106	-18	.	.
CCOC(=O)/C=C1\NC(C)(C)Cc2cc(OC)c(O)cc21	.	-16	83	74
CN1CCC2(CC1)N=C(c1ccccc1O)CC(c1ccccc1O)N2 (stereo unspecified)	98	-23	.	.
O=S(=O)(c1ccc(Br)cc1)N1CCN(c2cc(-c3ccc(F)cc3)ncn2)CC1	102	18	.	.
Cc1cc(COC(=O)Nc2ccc(Cl)cc2)no1	98	-1	119	78
CC(C)COc1ccc(C(=O)N2CCCCC2CCN2CCOCC2)cc1 (stereo unspecified)	103	-37	97	86
O=C(Nc1cccc(Cl)c1)c1nn2c(c1Br)NC(c1cccs1)CC2C(F)(F)F (stereo unspecified)	89	-15	.	.

Gathered by group, the compounds so far containing a COOH group.
SMILES	GIV-Gai inh	HCMV NEC inh	Sa growth 42C	Sa growth 42C second temp
O=C(O)c1ccc(Nc2c(-c3cccc(Br)c3)nc3cnccn23)cc1	100	-36	.	.
Nc1ccc(C(=O)c2ccccc2C(=O)O)cc1Cl	95	-10	97	103

Continuation.
SMILES	GIV-Gai inh	HCMV NEC inh	Sa growth 42C	Sa growth 42C second temp
COc1ccc(/C=C/C(=O)OCC(=O)Nc2cccc(C(F)(F)F)c2)cc1	.	-35	107	85
COc1ccc(NC(=O)CCCn2nc(C)c3c(C)n(-c4ccccc4)nc3c2=O)cc1	103	-2	.	.
COC(=O)CCSc1nc2c(c(=O)[nH]1)C(C)(C1CCCCC1)Cc1ccccc1-2 (stereo unspecified)	101	-7	.	.
COc1ccc(C(=O)NCCc2sc(-c3ccc(F)cc3)nc2C)c(OC)c1	108	-11	.	.
Cc1nc(-c2ccccn2)nc(SCC(=O)N2CCOCC2)c1Cl	107	-18	98	84
COc1cc(OC)c(NC(=O)C2CCN(S(=O)(=O)c3c(C)noc3/C=C/c3c(C)cc(C)cc3C)CC2)cc1Cl	102	.	104	95
O=c1nc(Nc2ccccc2)oc2ccccc12	107	-3	77	68
O=C(Nc1ccccc1F)c1cc(-c2ccncc2)n[nH]1	106	-6	.	.
CCc1cc2c(C)cc(=O)oc2cc1OCC(=O)NC1CCCCC1	.	-5	77	86
O=C(Cc1ccc(Cl)cc1)OCC(=O)c1cc2ccccc2o1	.	-19	101	92
CCOc1ccccc1-c1nnc(-c2ccc3c(c2)OCO3)o1	100	4	.	.
COc1ccccc1C(=O)Nc1sccc1C(N)=O	.	-19	122	85

An excerpt from above in order of length of the SMILES, smallest number first.
SMILES	GIV-Gai inh	HCMV NEC inh	Sa growth 42C	Sa growth 42C second temp
CC(C)N1CCN(Cc2ccc3ccccc3c2)CC1	98	-16	108	80
Nc1ccc(C(=O)c2ccccc2C(=O)O)cc1Cl	95	-10	97	103
COc1ccc(-c2cn3c(n2)sc2cc(C(=O)Nc4cccc(OC)c4)ccc23)cc1	106	.	104	95
O=C(COc1ccccc1-c1nc(-c2ccccc2)no1)Nc1cccc([N+](=O)[O-])c1	99	-22	106	86
COc1cc(OC)c(NC(=O)C2CCN(S(=O)(=O)c3c(C)noc3/C=C/c3c(C)cc(C)cc3C)CC2)cc1Cl	102	.	104	95

Next part:
SMILES	GIV-Gai inh	HCMV NEC inh	Sa growth 42C	Sa growth 42C second temp
Cc1ccc(OCc2nc(C)c(C(=O)Nc3nccs3)s2)cc1C	107	-26	.	.
Cc1ccc(C2C3=C(CCCC3=O)NC3=C2C(=O)c2ccccc23)cc1 (stereo unspecified)	100	-77	90	73
O=C(CCSc1nc(-c2ccco2)cc(C(F)(F)F)n1)N1CCCc2ccccc21	99	.	111	90
CCOC(=O)c1c(N)sc2c1CCC2	.	-23	87	80
CC(C)(CC(=O)O)CC(=O)Nc1ccc2c(c1)C(=O)OC2	96	-18	101	81
Cc1cc(NC(=O)CC(C)(C)CC(=O)O)n(C)n1	109	-18	89	79
CCn1ccc(C(=O)Nc2ccc(C)c(C)c2)n1	109	-18	103	87
COc1cccc(OC)c1C(=O)Nc1ccc2c(c1)CCCN2S(=O)(=O)c1ccc(C)cc1	100	.	94	93
CCOc1ccc(S(=O)(=O)NCCC(=O)NC2CCC(C)CC2)cc1 (stereo unspecified)	.	-30	78	82
Cc1cc(C(=O)N/N=C/C(C)(C)C)nn1-c1ccc(C(C)C)cc1	106	-20	102	97
N#CC1=C(N)Oc2c(oc(CO)cc2=O)C12C(=O)Nc1ccccc12 (stereo unspecified)	109	-28	91	87
CCOC(=O)c1sc(N/C=C(\C#N)c2nc3cc(Cl)ccc3o2)c(C#N)c1C	-7.6*	-6	78	52
COC(=O)c1c(OCC(=O)N(Cc2ccccc2)C(C)(C)C)cc(=O)n2c1CCCCC2	.	-11	94	99
Fc1ccc(Cc2nnc(-c3ccc(F)cc3)o2)cc1	102	5	89	93
CCSc1ncc(Cl)c(C(=O)N(Cc2cccc(Cl)c2)C2CCS(=O)(=O)C2)n1 (stereo unspecified)	106	-7	.	.
O=C1C2C(C(=O)N1Cc1ccc(F)cc1)C1C=CC2C12CC2 (stereo unspecified)	99	.	90	91
Cc1ccc(C2=NS(=O)(=O)N(C)C(C(=O)N(C)c3ccccc3)=C2)cc1	97	.	110	93
O=C(Nc1ccc2[nH]ccc2c1)c1cccs1	109	-9	89	85
CC(C)(Oc1ccc(Cl)cc1)C(=O)Nc1ccc2nccnc2c1	102	-26	92	76
CCOc1cccc(C(=O)N(Cc2ccc(C(C)C)cc2)C2CCS(=O)(=O)C2)c1 (stereo unspecified)	102	-14	105	86
O=C(CCNS(=O)(=O)c1ccc2c(c1)OCCO2)NC1CCCc2ccccc21 (stereo unspecified)	.	-2	88	88
COCCCn1c(-c2ccc(F)cc2)nc2c(c(=O)c3ccccc3n2C)c1=O	107	-6	85	83
O=C(NCc1ccc2c(c1)OCO2)C1CCN(c2cc(-c3ccc(F)cc3)ncn2)CC1	107	-38	.	.
O=C(CSc1ncc(-c2ccccc2)[nH]1)Nc1ccc(Cl)cc1	103	10	113	103
CNCc1ccccc1N1CCOCC1	.	-23	79	85
O=c1cc(-c2ccc(F)cc2)nc(SCc2nc(-c3ccc(Cl)cc3)no2)[nH]1	98	.	94	86
CC(C)(C)c1cc(C(C)(C)C)n(-c2ccc(Br)cc2)n1	107	-2	103	98
O=C(Cn1c(=O)n(Cc2nc(-c3ccccc3)no2)c(=O)c2ccccc21)Nc1cccc(C(F)(F)F)c1	107	.	110	90
Cc1nn(CC(C)C)c(Cl)c1C(=O)NCC1COc2ccccc2O1 (stereo unspecified)	.	-25	78	90
Cc1cccc(NC(=O)C(C)n2nc(C)c(Cc3ccccc3)c2C)c1C (stereo unspecified)	98	5	.	.
COC(=O)C(C)(C)S(=O)(=O)c1ccc(C(F)(F)F)cn1	105	-14	98	83
CC1(C)CC(=O)C2=C(C1)Oc1ccc(Br)cc1C2	103	-21	105	90
Cc1cc(C(=O)CSc2c(F)c(F)c(C(=O)O)c(F)c2F)ccc1Cl	100	-2	90	98
Nc1nnnn1/N=C\c1ccc(O)cc1	101	.	83	98
Cc1noc(C)c1CSc1ccccc1C(=O)OCc1nnc(-c2ccccc2)o1	.	-34	66	36
O=C(Nc1ccccc1-c1nc(-c2ccccc2)no1)C1CC(=O)N(C2CCCCC2)C1 (stereo unspecified)	108	-5	.	.

Reprinted at random: 2 entries already listed
SMILES	GIV-Gai inh	HCMV NEC inh	Sa growth 42C	Sa growth 42C second temp
Nc1nnnn1/N=C\c1ccc(O)cc1	101	.	83	98
Cc1noc(C)c1CSc1ccccc1C(=O)OCc1nnc(-c2ccccc2)o1	.	-34	66	36

Continuation:
SMILES	GIV-Gai inh	HCMV NEC inh	Sa growth 42C	Sa growth 42C second temp
Cc1c(N2C(=O)C(=O)/C(=C(/O)c3ccc(Br)cc3)C2c2cccnc2)c(=O)n(-c2ccccc2)n1C (stereo unspecified)	102	-38	86	84
O=C(CN1CCNCC1)Nc1ccc(Cl)cc1Cl	100	-12	94	87
Cc1ccc2c(c1)sc(=NC(=O)C1=COCCO1)n2C	104	6	105	100
Cc1ccc2c(c1)-c1c(cnn1CC(=O)NCCCN(Cc1ccccc1)C(C)C)CO2	102	-30	.	.
COc1ccc(C(=O)Nc2nc3ccccc3[nH]2)cc1OC	99	-11	105	89
COc1cccc(C(=O)Nc2ccccc2C#N)c1OC	101	-9	102	98
Cc1ccc(Cl)cc1N1CCN(C(=O)c2ccc3c(Cl)c4c(nc3c2)CCCC4)CC1	97	-34	108	88
COc1cccc(C(=O)ON2C(=O)c3ccccc3C2=O)c1	102	-67	84	75
Cn1c(=NC(=O)CN2C(=O)C3CC=CCC3C2=O)sc2ccccc21 (stereo unspecified)	.	-14	99	93
COc1cc(C2C(C(=O)N3CCOCC3)=C(C)NC3=C2C(=O)CCC3)ccc1OC(C)=O (stereo unspecified)	.	1	101	93
COc1ccc(-c2nnc3sc(-c4cc(C)on4)nn23)cc1	107	-7	.	.
COc1ccc2c(c1)cc(CNc1ccc(OC)c(OC)c1)c(=O)n2CC(=O)Nc1ccc(F)cc1	106	.	105	78
CN=C(N)NCCC[C@H](N)C(=O)O	101	-41&3	96	91
COc1ccc(NC(=O)c2cc(=O)c3ccc(C)c(C)c3o2)cc1Cl	104	-24	113	92
COc1cccc(Cn2c(=O)n(CCc3ccccc3)c(=O)c3cccnc32)c1	101	-20	95	87
CC1CCCC(C)N1C(=O)COC(=O)c1c2c(nc3ccccc13)CCC2 (stereo unspecified)	.	-48	126	79
COc1ccc(OC)c(NC(=O)c2nc(SCc3ccc(F)cc3)ncc2Cl)c1	103	-4	102	87
CC1(C)CC(=O)c2c(nc3cc(Cl)ccc3c2N)C1	101	-12	108	93
COc1ccc(NC(=O)Cn2cc(C(=O)c3ccccc3OC)c(=O)c3ccc(C)nc32)cc1OC	111	.	78	88
Nc1c(-c2nc(-c3ccccc3)no2)nnn1CC(=O)Nc1ccccc1	95	6	102	90
CCc1cccc(NC(=O)Cn2c(C(=O)OC)cc3occc32)c1	106	-32	132	100
Cc1ccc(S(=O)(=O)NCc2nc(N)n(S(=O)(=O)c3ccc(C)cc3C)n2)c(C)c1	107	7	.	.
O=C(Nc1ccc(F)cc1)C1CCCO1 (stereo unspecified)	.	-1	92	93
CC(=O)OCc1cnc(C)c2oc(=O)c(C(=O)Nc3ccc(Cl)cc3)cc12	97	-25	.	.
CSc1nsc(SCC(=O)N(c2ccccc2)c2ccccc2)n1	104	-39	105	80
C=CC[N+]1(C)Cc2ccccc2C1	102	.	101	81
O=C(NCc1ccccc1Cl)C1CCCN(c2nc3ccccc3n(Cc3ccccc3)c2=O)C1 (stereo unspecified)	104	-30	.	.
CCC(=O)Nc1nc2c(OC)cc(NC(=O)Nc3cccc(Cl)c3)cc2s1	101	-18	.	.
COc1ccc(C2CC(=O)C3=C(C2)Nc2ccccc2NC3c2coc3ccc(C)cc3c2=O)cc1OC (stereo unspecified)	108	-13	.	.
Cc1ccc(C)[n+](CNC(=O)c2ccc(Cl)cc2Cl)c1	.	4	85	114
COC(=O)c1cc(=O)n(C2CCCCC2)c(=NC2CCCCC2)s1	109	.	83	85
C=CCN1C(=O)CS/C1=N/c1nccs1	100	18	108	110
COCCCNC(=O)c1c(NC(=O)Cc2coc3cc(C)cc(C)c23)sc2c1CCCC2	106	-8	121	92
COc1cc(OC)cc(C(=O)Nc2ccc3nc(N4CCC(C)CC4)cc(C)c3c2)c1	107	-3	88	77
O=C(Nc1cccc(Cl)c1)c1nnc(CCCC(=O)N2CCN(c3ccccn3)CC2)s1	101	-17	.	.
